CtBP-E1A inh: blocks the CtBP interaction with E1A. AlphaScreen GST-E1A/His-CtBP binding, 1536-well; active compounds read low; control for the full effect not named in the record. AID 651724. activity change, % (concentration not given with the values). actives 0.49% (n = 340,000); in the data active means activity change below about -65%; inconclusive means about -30% to -65%; inactive means above about -30%; further: on the % scale 0 is the no-effect control and ±100 the full control effect
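Steps: dispense buffer (Tris pH 8.0, NaCl 300 mM, TCEP 1 mM, BSA, Tween 20); add 5X protein mix (GST-E1A, His-CtBP, 125 nM each); pin 23 nL compound; 2 h at 37 °C, dark; add 5X beads (50 ug/mL); 1 h; read.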
D2 PAM: human D2 receptor positive allosteric modulation | DiscoveRx D2 beta-arrestin cells, luminescence, 90 min; 100% = 57 uM dopamine signal | actives 0.23% (n = 360,000) | potentiation, % (concentration not given with the values); active = potentiation of 50% or more; inconclusive = 30% to 50%; inactive = 30% or less;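 further: compound concentration not given in the record; tested on top of an EC20 dose of dopamine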
Target sequence (P14416 whole entry, looked up): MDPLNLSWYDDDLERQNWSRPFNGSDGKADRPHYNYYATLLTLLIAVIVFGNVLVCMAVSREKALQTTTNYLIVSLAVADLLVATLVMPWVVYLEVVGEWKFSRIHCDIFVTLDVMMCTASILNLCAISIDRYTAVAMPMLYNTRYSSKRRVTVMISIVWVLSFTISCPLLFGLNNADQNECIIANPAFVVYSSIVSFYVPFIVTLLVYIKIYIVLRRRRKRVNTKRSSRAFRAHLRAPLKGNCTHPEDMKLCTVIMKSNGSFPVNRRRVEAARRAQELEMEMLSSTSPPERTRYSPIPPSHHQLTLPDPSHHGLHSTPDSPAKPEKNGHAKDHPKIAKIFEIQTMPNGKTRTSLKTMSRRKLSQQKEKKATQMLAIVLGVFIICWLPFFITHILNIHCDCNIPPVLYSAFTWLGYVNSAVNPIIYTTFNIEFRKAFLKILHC
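PathHunter beta-arrestin assay in DiscoveRx D2 cells. Compounds were added with an EC20 of dopamine (50 nM final) for 90 min at 37 deg C. Luminescence was read 1 h after detection reagent, with 57 uM dopamine as the EC100 control.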
D2 agonist: activates the human D2 dopamine receptor. P14416. DiscoveRx PathHunter D2 beta-arrestin, luminescence, 90 min; 100% = 57 uM dopamine signal. activation, % (concentration not given with the values). actives 0.084% (n = 360,000). AID 624465; in the data active = activation above about 40%; inconclusive = about 15% to 40%; inactive = below about 15%; further: compound concentration not given in the record; the text of the record calls up to 30% inactive
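Agonist mode: compounds alone added to overnight-plated D2 PathHunter cells for 90 min at 37 C, with 57 uM final dopamine (EC100) defining full response. Beta-arrestin recruitment detected by chemiluminescent reagent, read after 1 h at ambient temperature.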
gsp antag: gsp mutant antagonism; gsp-mutant cells, cAMP HTRF, 30 min; control for the full effect not named in the record; Potency, µM (top dose mostly 76.9 µM), inactives show at the highest dose activity change, negative = inhibition, usual class: inhibitors; actives 0.4% (n = 340,000); AID 624288; active = falling curve of any shape with a large fitted effect; inconclusive = falling curve, mostly with a smaller effect; inactive = flat or rising curve; cell line not stated here;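 further: intracellular cAMP measured with PDE inhibitor Ro 20-1724 present during compound exposure; potency means the concentration at half of the fitted maximal effect; on the % scale 0 is the no-effect control and ±100 the full control effect; nearly all actives have a fitted effect of over 65% in size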
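HTRF cAMP read-out (cAMP-d2 plus anti-cAMP antibody-K in lysis buffer, 30 min RT). Before lysis, cells are exposed to compounds with […] for 30 min at 37C in DPBS containing Ca/Mg, BSA and Tween 20.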
gsp ag: gsp mutant agonism. AID 624287. actives 0.13% (n = 340,000). gsp mutant cells, cAMP HTRF, 30 min; control for the full effect not named in the record. Potency, µM (titrated, usually from 76.9 µM), inactives show at the highest dose activation (cAMP increase), hits mostly activators; active = well fitted activation curve with a large enough effect; inconclusive = small, poorly fitted or top-dose-only effect, or another doubt; inactive = no such curve, though single readings can be large or run the other way; cell line not stated here;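 further: phosphodiesterase inhibitor Ro 20-1724 added with compounds to block cAMP breakdown; potency means the concentration at half of the fitted maximal effect; nearly all actives have a fitted effect of over 60% in size; about a fifth of the inactives were tested at one dose only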
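Cells in DMEM/10% FBS with G418 were pretreated with compounds in DMSO plus […] (300 uM stock) for 30 min at 37C. cAMP was measured by HTRF (cAMP-d2 plus anti-cAMP antibody-K) after 30 min at room temperature.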
Six1-Eya2 blk: Six1/Eya2 interaction inhibition | actives 0.56% (n = 360,000) | AlphaScreen GST-Six1/His-Eya2 binding, biochemical; active compounds read low; control for the full effect not named in the record | Q15475+O00167 | activity change, % (test concentration not listed); in the data active = activity change below about -65%; inconclusive = about -30% to -65%; inactive = above about -30%; further: on the % scale 0 is the no-effect control and ±100 the full control effect
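AlphaScreen with GST-Six1 and His-Eya2 (5X mix: 250 nM and 500 nM), glutathione donor and nickel acceptor beads; buffer 50 mM Tris pH 8.0, 300 mM NaCl, 1 mM TCEP; 1 h at 37 C in the dark.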
* hit, by the source's call; ? = inconclusive; / = not tested or not shown; [ ] = remark or other dose.

SMILES	CtBP-E1A inh	D2 PAM	D2 agonist	gsp antag	gsp ag	Six1-Eya2 blk
O=C(CSc1ccc(-c2ccc(Br)cc2)nn1)NC1CCCC1	0	-2	-4.4	-10%	-5%	5
COC(=O)c1ccc(COC(=O)c2ccc(C)c(S(=O)(=O)N3CCCCC3)c2)cc1	-18	-69	2.9	-5%	-36%[15.4 µM]	1
Cc1nc2ccc(NS(=O)(=O)c3ccc(F)c(F)c3F)cc2s1	/	2	-1.5	-12%	-5%	11
COc1ccc(CN(C2CCCC2)S(=O)(=O)c2ccc(-n3cnnn3)c(OC)c2)cc1OC	-5	-5	-1.7	-6%	-6%	-6
CCc1nc(-c2ccccc2)cc(=O)[nH]1	7	-9	0.1	6%	-8%	4
O=C(NCc1ccccc1)C1=C[C@@H](C2CC2)C[C@@H](OCCCCO)O1	0	-6	-4.2	0%	/	0
CN(C)S(=O)(=O)c1ccc(Cl)c(NC(=O)COC(=O)CCSc2ccccc2)c1	11	-3	-1.8	3%	2%	3
CC(O)CNC(=O)Cc1cc(=O)[nH]c(=O)[nH]1 (centres undefined)	4	-6	-3.4	8%	-3%	4
CN(C)c1ccc(N/C=C/C(=O)c2ccc(F)cc2)cc1	-21	3	1.7	-20%	0%	-23
CC(=O)c1ccc(NC(=O)CSc2nc3[nH]c(=O)cc(O)c3s2)cc1	4	-5	-2.5	2%	1%[15.4 µM]	19
Cc1cc2cc(CNC(=O)Cc3ccc([N+](=O)[O-])cc3)ccc2[nH]1	/	-17	-9.8	3%	-6%	-6
Cc1ccc2[nH]c(=O)c(C(c3nnnn3C(C)(C)C)N3CCN(C(=O)c4ccco4)CC3)cc2c1 (centres undefined)	7	-3	-3.1	-6%	-68%[inhibitor]	6
CCOc1ccc(N(CC(=O)N2CC=C(c3ccccc3)CC2)S(=O)(=O)c2c(C)noc2C)cc1	0	-10	-0.1	-9%	1%	-8
CN(C)c1nc(SCC#N)nc(N(C)C)n1	-1	-11	0.8	7%	-34%	7
CN1CCN(C(=O)COCc2cc(-c3ccc4c(c3)OCO4)on2)CC1	-9	-13	-3.2	7%	?	0
O=C(NCC(=O)N(c1ccc2c(c1)OCO2)C(C(=O)NC1CCCC1)c1cccs1)c1ccco1 (centres undefined)	0	22	-1.6	-5%	-1%	-1
O=[N+]([O-])c1ccc(O)c(/C=N\N=C2c3ccccc3-c3ccccc32)c1	-23	-19	-6.6	?	-10%	-9
CCOc1ccccc1C(=O)NCCC(=O)O	6	-4	-4.8	1%	-32%	?
Cc1ccc([N+](=O)[O-])cc1S(=O)(=O)N1CCCC1	-5	10	-1.2	7%	-28%	6
COc1ccc(-n2nc3c(c2NC(=O)C2CC(=O)N(c4ccccc4)C2)CS(=O)(=O)C3)cc1 (centres undefined)	2	2	-1.3	2%	9%[15.4 µM]	10
Cc1ccc(S(=O)(=O)N2CCOCC2)cc1NC(=O)CNCC1CCCCC1	-11	-2	?	7%	10%[15.4 µM]	-10
COc1ccc(C2(C(N)=O)CCCCC2)cc1OC	7	-2	-6.8	-5%	-25%	6
COc1cccc(/C=C/C(=C2/C(=O)N(c3ccccc3)N=C2C)c2ccc(C)cc2)c1OC	5	-4	-3.2	11%	-3%	7
COc1ccc(NC(=O)/C(C#N)=C/c2ncc([N+](=O)[O-])n2C)c(OC)c1	-18	-2	12	17%	-3%[15.4 µM]	-8
CC1Cc2ccccc2N1S(=O)(=O)c1cnc(Cl)c(Cl)c1 (centres undefined)	3	-7	-1.3	-13%	22%	4
O=C(CCN1CCOCC1)Nc1cc(C(=O)Nc2ccccc2F)ccc1N1CC2CC(C1)c1cccc(=O)n1C2 (centres undefined)	1	-1	1.2	-19%	?	-2
Cc1ccc(S(=O)(=O)Nc2ccc(-n3c(C)nc4ccccc4c3=O)cc2)cc1	-2	-9	0.4	-23%	1%	-1
Cc1ccc(-c2noc(CSc3nnc(Cc4ccccc4)n3-c3cccc(C)c3)n2)cc1	-15	-10	1.3	-21%	-6%	-10
O=C1C(=O)N(Cc2cccnc2)C(c2ccccn2)/C1=C(/O)c1ccccc1 (centres undefined)	3	-4	-1.3	3%	15%	3
CC(C)CC(=O)N1CCN(Cc2ccc(C(F)(F)F)cc2)CC1	/	-3	3.8	4%	-13%	-2
COc1ccc(-c2nnc(SCCC(=O)O)n2-c2ccccc2)cc1OC	11	-4	0.0	9%	6%	2
O=C1NCN(C2CCCCC2)CN1	3	-10	-0.8	6%	34%	3
O=C(CSc1ccc2ccccc2c1)NCCCN1CCCC1=O	/	-2	0.0	-5%	-19%	1
COc1ccc(C(=O)NC(C(=O)N2CCN(c3ccccc3O)CC2)C(C)C)cc1 (centres undefined)	-1	-5	0.3	-22%	4%[15.4 µM]	13
O=C(Nc1cccc2c1CCCC2)c1ccccc1F	0	-7	-4.0	-7%	-17%[15.4 µM]	12
Cc1c(C(=O)C(=O)N2CCN(C)CC2)c2ccccc2n1C	-15	-19	0.8	3%	1%[15.4 µM]	-7

Exported with values ahead of the structure: part of the list above.
CtBP-E1A inh | D2 PAM | D2 agonist | gsp antag | gsp ag | Six1-Eya2 blk | smiles
0 | 22 | -1.6 | -5% | -1% | -1 | O=C(NCC(=O)N(c1ccc2c(c1)OCO2)C(C(=O)NC1CCCC1)c1cccs1)c1ccco1 (centres undefined)
-23 | -19 | -6.6 | ? | -10% | -9 | O=[N+]([O-])c1ccc(O)c(/C=N\N=C2c3ccccc3-c3ccccc32)c1
6 | -4 | -4.8 | 1% | -32% | ? | CCOc1ccccc1C(=O)NCCC(=O)O
-5 | 10 | -1.2 | 7% | -28% | 6 | Cc1ccc([N+](=O)[O-])cc1S(=O)(=O)N1CCCC1
2 | 2 | -1.3 | 2% | 9%[15.4 µM] | 10 | COc1ccc(-n2nc3c(c2NC(=O)C2CC(=O)N(c4ccccc4)C2)CS(=O)(=O)C3)cc1 (centres undefined)
-11 | -2 | ? | 7% | 10%[15.4 µM] | -10 | Cc1ccc(S(=O)(=O)N2CCOCC2)cc1NC(=O)CNCC1CCCCC1
7 | -2 | -6.8 | -5% | -25% | 6 | COc1ccc(C2(C(N)=O)CCCCC2)cc1OC
5 | -4 | -3.2 | 11% | -3% | 7 | COc1cccc(/C=C/C(=C2/C(=O)N(c3ccccc3)N=C2C)c2ccc(C)cc2)c1OC
-18 | -2 | 12 | 17% | -3%[15.4 µM] | -8 | COc1ccc(NC(=O)/C(C#N)=C/c2ncc([N+](=O)[O-])n2C)c(OC)c1
3 | -7 | -1.3 | -13% | 22% | 4 | CC1Cc2ccccc2N1S(=O)(=O)c1cnc(Cl)c(Cl)c1 (centres undefined)
1 | -1 | 1.2 | -19% | ? | -2 | O=C(CCN1CCOCC1)Nc1cc(C(=O)Nc2ccccc2F)ccc1N1CC2CC(C1)c1cccc(=O)n1C2 (centres undefined)
-2 | -9 | 0.4 | -23% | 1% | -1 | Cc1ccc(S(=O)(=O)Nc2ccc(-n3c(C)nc4ccccc4c3=O)cc2)cc1
-15 | -10 | 1.3 | -21% | -6% | -10 | Cc1ccc(-c2noc(CSc3nnc(Cc4ccccc4)n3-c3cccc(C)c3)n2)cc1
3 | -4 | -1.3 | 3% | 15% | 3 | O=C1C(=O)N(Cc2cccnc2)C(c2ccccn2)/C1=C(/O)c1ccccc1 (centres undefined)
/ | -3 | 3.8 | 4% | -13% | -2 | CC(C)CC(=O)N1CCN(Cc2ccc(C(F)(F)F)cc2)CC1
11 | -4 | 0.0 | 9% | 6% | 2 | COc1ccc(-c2nnc(SCCC(=O)O)n2-c2ccccc2)cc1OC
3 | -10 | -0.8 | 6% | 34% | 3 | O=C1NCN(C2CCCCC2)CN1
/ | -2 | 0.0 | -5% | -19% | 1 | O=C(CSc1ccc2ccccc2c1)NCCCN1CCCC1=O

(more compounds)
SMILES	CtBP-E1A inh	D2 PAM	D2 agonist	gsp antag	gsp ag	Six1-Eya2 blk
COc1ccc(C(=O)OCN2C(=O)c3ccccc3C2=O)cc1	-4	-4	1.1	9%	6%[15.4 µM]	16
COc1ccc(C2c3[nH]c4ccccc4c3C[C@H]3C(=O)N(C4CCN(Cc5ccccc5)CC4)CC(=O)N23)c(OC)c1 (some centres undefined)	/	-19	-1.3	-6%	-12%	-7
O=C(CSc1nnc(C2CC2)n1Cc1ccccc1)Nc1cccnc1Cl	-8	4	-4.0	7.9µM*	5%[15.4 µM]	1
CC1=CC2=NC(=O)/C(=C\c3cc(C)n(-c4cccc(Cl)c4)c3C)C(=N)N2O1	-22	-12	-5.9	-3%	-6%[15.4 µM]	-8
O=C(Nc1cccnc1)c1ccc(Cl)cc1[N+](=O)[O-]	0	-1	5.9	/	-9%[15.4 µM]	0
COc1ccc(S(=O)(=O)Nc2ccccc2OC)cc1NC(=O)c1cc2ccccc2oc1=O	8	10	0.2	8%	28%	1
C=CCn1c2c(c3ccccc31)CCC2	0	-6	-1.6	/	/	-7
CCc1ccccc1NC(=O)N1CCCC(CCC(=O)N(C)CCc2ccccn2)C1 (centres undefined)	/	-4	-1.7	4%	-29%	0
S=C(Nc1ccccc1Cl)Nc1ccc(Cl)cc1Cl	3	2	-2.1	6%	12%	7
Cc1cccn2c(N)c(-c3ccccc3)nc12	3	26	1.6	-10%	0%	-1
COc1ccc(CCNC(=O)c2ccc3c(c2)NC(=O)C(N2CCOCC2)S3)cc1OC (centres undefined)	-2	8	3.2	1%	17%	4
C[C@H](CO)N1C[C@H](C)[C@@H](CN(C)Cc2ccc(-c3ccccc3)cc2)OCc2cnnn2CCCC1=O	4	0	-6.9	/	-73%[inhibitor]	3
COc1ccc(Oc2cn[nH]c2-c2ccc(OC)cc2O)cc1	-2	-1	6.0	-11%	0%	8
O=C(Cn1cnc2c(cnn2-c2ccccc2)c1=O)Nc1cc(S(=O)(=O)N2CCOCC2)ccc1Cl	-15	-7	1.1	-21%	?	-6
Nc1ccc(CCC(=O)N2CCCC2)cc1	15	-2	-3.6	-8%	-51%	-2
Cn1cnnc1SCC(C)(C)NS(=O)(=O)c1ccc(Cl)cc1	-8	-9	-4.3	/	-1%[15.4 µM]	12
CCC(=O)Nc1ccc2c(c1)nc1n2CCN(C2CCCCC2)C1	-16	-7	-11	12%	-2%[15.4 µM]	0
